TRPML1 agonist – agonists of human TRPML1 channel | Q9GZU1 | TRPML1-expressing cells, Ca2+ dye fluorescence, FDSS; host cell line not named in the record; reference of the full effect not given here | activation, % (no concentration beside the values) | 0.12% of 410,000 active | AID 624414; in the data active = activation above about 50%; inconclusive = about 30% to 50%; inactive = below about 30%; further: 0% is about no effect; the text of the record puts the active cut at 80%
Target sequence (Q9GZU1 whole entry, looked up): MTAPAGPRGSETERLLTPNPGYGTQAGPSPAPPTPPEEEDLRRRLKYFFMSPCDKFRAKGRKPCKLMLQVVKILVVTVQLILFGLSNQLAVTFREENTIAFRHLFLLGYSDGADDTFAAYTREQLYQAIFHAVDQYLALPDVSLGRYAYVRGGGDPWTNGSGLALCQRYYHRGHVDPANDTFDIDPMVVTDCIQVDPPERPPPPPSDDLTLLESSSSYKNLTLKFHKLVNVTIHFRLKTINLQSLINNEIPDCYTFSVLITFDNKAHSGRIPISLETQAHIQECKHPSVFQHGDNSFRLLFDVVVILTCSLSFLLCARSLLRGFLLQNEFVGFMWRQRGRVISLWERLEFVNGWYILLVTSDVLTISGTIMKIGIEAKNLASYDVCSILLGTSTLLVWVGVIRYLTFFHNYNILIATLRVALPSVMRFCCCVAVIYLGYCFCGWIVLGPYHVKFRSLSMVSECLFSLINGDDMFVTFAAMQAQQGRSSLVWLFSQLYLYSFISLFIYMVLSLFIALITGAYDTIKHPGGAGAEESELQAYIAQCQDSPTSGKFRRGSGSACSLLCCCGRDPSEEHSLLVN
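Agonist activity was taken from a 110 s kinetic Ca2+ dye read on the FDSS after pinning compounds onto TRPML1-DL cells. The cells were seeded at 1,500/well with Tet inducer, incubated about 16 h, then dye-loaded at room temperature.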
TRPML1 blocker – human mucolipin-1 channel inhibition; TRPML1-inducible cells, Ca2+ dye fluorescence, FDSS; stronger effect = lower value; inhibition of EC80 agonist-evoked calcium signal; activity change, negative = inhibition, % (no concentration beside the values); 0.02% of 390,000 active; Q9GZU1; in the data active means activity change below about -50%; inconclusive means about -30% to -50%; inactive means above about -30%;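 further: stimulus is agonist 54-4 at its EC80 concentration; on the % scale 0 is the no-effect control and ±100 the full control effect; compound concentration not given in the record; the text of the record puts the active cut at -80%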
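Tet-induced TRPML1-DL cells loaded with Ca8 no-wash calcium dye were read kinetically on FDSS. Compound addition was followed by EC80 agonist 54-4 (4 uM final); inhibition was read over 110 s.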
PINK1 modulator – modulators of PINK1 expression. PINK1 immunofluorescence, high-content cytometry, 24 h. AID 624263. Potency, µM (top dose mostly 76.6 µM), for inactives: at the top dose activation (PINK1 increase), most hits filed as activators. 0.2% of 410,000 active; active = well fitted activation curve with a large enough effect; inconclusive = small, poorly fitted or top-dose-only effect; inactive = flat fitted curve, though single readings scatter; cell line not stated here;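 further: potency means the concentration at half of the fitted maximal effect; % of control where 0% means no effect; nearly all actives have a fitted effect of over 65% in size; a mitochondrial uncoupler was the plate control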
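Compound titrations (5 concentrations, 24 h) on a stable cell line; DMSO and CCCP controls. Endpoint: fixed-cell PINK1 immunofluorescence with mitochondrial, cell and nuclear markers, scanned by microplate cytometer.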
Six1-Eya2 inh – inhibitors of human Six1/Eya2 interaction; Q15475+O00167; AlphaScreen GST-Six1/His-Eya2 binding, biochemical; stronger effect = lower value; control for the full effect not named in the record; activity change, % (no concentration beside the values); 0.56% of 360,000 active; AID 651725; in the data active = activity change below about -65%; inconclusive = about -30% to -65%; inactive = above about -30%; further: on the % scale 0 is the no-effect control and ±100 the full control effect; compound concentration not given in the record
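AlphaScreen with GST-Six1 and His-Eya2 (5X mix: 250 nM and 500 nM), glutathione donor and nickel acceptor beads; buffer 50 mM Tris pH 8.0, 300 mM NaCl, 1 mM TCEP; 1 h at 37 C in the dark.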
D2 ag – human D2 receptor agonism in beta-arrestin assay | P14416 | DiscoveRx PathHunter D2 beta-arrestin, luminescence, 90 min; 100% = 57 uM dopamine signal | activation, % (concentration not given with the values) | 0.084% of 360,000 active; in the data active = activation above about 40%; inconclusive = about 15% to 40%; inactive = below about 15%; further: compound concentration not given in the record; the text of the record calls up to 30% inactive
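DiscoveRx PathHunter D2 beta-arrestin cells (2,100/well) attached overnight, then compound-stimulated 90 min at 37 C in HBSS/10 mM HEPES/0.1% Tween-20 buffer; beta-galactosidase complementation read by luminescence after 1 h at ambient temperature. Dopamine 57 uM final (EC100) as control.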
D2 PAM – positive allosteric modulators of human D2 dopamine receptor; P14416; DiscoveRx D2 beta-arrestin cells, luminescence, 90 min; 100% = 57 uM dopamine signal; potentiation, % (test concentration not listed); 0.23% of 360,000 active; AID 624464; active = potentiation of 50% or more; inconclusive = 30% to 50%; inactive = 30% or less;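 further: compound concentration not given in the record; tested on top of an EC20 dose of dopamine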
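PathHunter beta-arrestin assay in DiscoveRx D2 cells. Compounds were added with an EC20 of dopamine (50 nM final) for 90 min at 37 deg C. Luminescence was read 1 h after detection reagent, with 57 uM dopamine as the EC100 control.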
Numbers without * were called inactive; ? = inconclusive; / = no result given; [ ] = remark or other dose. Rows were taken by chance. Share with any hit: about 1%.

Under each structure – TRPML1 agonist, TRPML1 blocker, PINK1 modulator, Six1-Eya2 inh, D2 ag, D2 PAM
1: CCN(CC)S(=O)(=O)c1ccc(C)c(NC(=S)N2CCN(C/C=C/c3ccccc3)CC2)c1
→ 0.4, 4, 1.9%, -7, -5.2, -4
2: CN(C)CC(C)(C)NS(=O)(=O)c1ccc(Cl)cc1
→ 0.5, 9, /, -1, 2.0, -2
3: CC(C)N1CCc2c(sc(NC(=O)CCS(=O)(=O)c3ccccc3)c2C(N)=O)C1
→ 0.2, -4, 0.5%, 3, -4.0, -8
4: Cc1ccsc1C(=O)NC(C)c1ccc2c(c1)OCO2 (stereo unspecified)
→ -0.3, -4, -2.0%[38.3 µM], -2, 2.2, 1
5: CC(C)(C)c1ccc(C(=O)O/N=C(\N)Cc2cccs2)cc1
→ -0.9, -11, -1.6%, -2, ?, 24
6: COc1ccc(CN(C)CCCn2cnc3c(OCc4ccccc4)ncnc32)cc1OC
→ 0.1, 5, 0.2%, 3, -3.4, /
7: COC(=O)C1=C(C(=O)OC)[C@@H]2Nc3ccccc3[C@@]23C[C@@H](C(=O)OC)N=C3N1
→ -0.4, -1, 2.2%, -15, -1.1, -6
8: COc1cccc(C(=O)Nc2c(C)n[nH]c2C)c1
→ -0.4, -10, 1.5%[38.3 µM], -1, -1.8, -6
9: Cn1c(=O)c2c(nc3n2CC(O)CN3c2ccc(O)cc2)n(C)c1=O (stereo unspecified)
→ -0.6, -5, 1.3%, -5, 12, 8
10: COc1ccccc1C(=O)NCC(=O)NC(C)CCc1ccccc1 (stereo unspecified)
→ 0.7, -6, 0.4%, -2, -3.6, -23
11: Cc1ccc(C23CC4CC(CC(C(=O)NC(C)C(N)=O)(C4)C2)C3)cc1 (stereo unspecified)
→ 3.7, -8, -0.5%, 2, -1.4, -4
12: CCOc1cc(N2CCOCC2)c(OCC)cc1NC(=O)c1ccccc1
→ -1.6, 9, 1.8%, -1, -1.4, -3
13: Cc1ccc(-c2noc(CC(c3ccccc3)c3ccccc3)n2)cc1
→ 1.4, 11, 10%, 51, -1.1, -12
14: CCCc1cc(C(=O)N2CCCC(CO)(CCCc3ccccc3)C2)n(C)n1 (stereo unspecified)
→ 0.2, -9, 0.7%, 10, -2.9, 5
15: NC(=O)C1CCN(C(=O)CN(C2CCCCC2)S(=O)(=O)c2ccc(F)cc2)CC1
→ 0.0, 8, 1.8%, 2, -2.3, -3
16: COc1cccc(C(=O)NCCNC(=O)c2ccccn2)c1
→ -0.3, 23, -0.3%, -1, -2.8, -2
17: COC(=O)CCCC1=CC2=C(c3ccccc3)C(=O)C(C)(OC(=O)C3CCCC3)C(=O)C2=CN1C1CCCC1 (stereo unspecified)
→ 0.5, 12, 2.4%, -11, -2.7, -7
18: Cc1ccc(CNC(=O)c2ccc(N3CCC4(CC3)CC(c3ccccc3)=NO4)c(N)c2)cc1
→ 1.2, 27, 1.7%, 4, -0.2, -4
19: Cc1noc(C(=O)Nc2ccc(F)cc2F)c1Cl
→ -0.8, -6, 0.6%, 11, 1.6, 0
20: Cc1ccccc1Oc1ccc2c(c1)[C@@H]1C[C@H](N(C)C(=O)c3ccc(C#N)cc3)[C@H]([C@H](C)O)C(=O)N1CC2
→ 3.3, -3, 1.4%, -6, -0.2, -3
21: CC(=O)c1cnc(SCCN2C(=O)c3ccccc3C2=O)nc1C
→ -0.6, 4, -0.8%, 2, 0.5, -7
22: CS(=O)c1nc(-c2ccc(Br)cc2)cc(-c2ccccc2)c1C#N (stereo unspecified)
→ 2.3, 35, -8.4%[38.3 µM], -11, 1.9, 1
23: COc1cc2c(cc1OC)[C@@H]1Cc3cc4c(cc3[C@H](C2)N1C)OCO4
→ 0.1, -2, -1.1%, 2, -1.6, -4
24: Cc1nc2nc(SCC(=O)NCCCN3CCOCC3)nn2c(C)c1Cc1ccccc1
→ 0.0, -16, -0.9%, -2, -2.2, -11
25: COc1ccccc1S(=O)(=O)N(C)C[C@H]1OCc2cnnn2CCCC(=O)N([C@@H](C)CO)C[C@@H]1C
→ -0.1, 3, -0.1%, 2, -8.6, 1
26: Cc1cc(CNC(=O)Cc2c(F)cccc2Cl)nn1C
→ 0.4, -18, -0.5%[38.3 µM], 0, -0.1, -2
27: COc1cccc(CNC(=O)C2CCC(=O)N(CC3CCCCC3)C2)c1OC (stereo unspecified)
→ 0.1, 30, -0.4%, -6, -3.1, -4
28: Fc1ccc(N2CCN(C3CCC(c4ccccc4)CC3)CC2)cc1 (stereo unspecified)
→ -0.3, 23, 12%, -21, -3.7, 0
29: O=C(Nc1cccc(F)c1)c1cccnc1N1CCOCC1
→ -0.5, 0, 11%[38.3 µM], -2, -1.9, -7
30: O=C1C=C(N(CCO)Cc2ccccc2)c2ccccc2C1=O
→ -1.4, 18, -0.9%, 64, ?, 13

An excerpt from above in order of the PINK1 modulator value, highest first:
cpd	smiles	PINK1 modulator
28	Fc1ccc(N2CCN(C3CCC(c4ccccc4)CC3)CC2)cc1 (stereo unspecified)	12%
16	COc1cccc(C(=O)NCCNC(=O)c2ccccn2)c1	-0.3%
27	COc1cccc(CNC(=O)C2CCC(=O)N(CC3CCCCC3)C2)c1OC (stereo unspecified)	-0.4%

Next section:
Under each structure – TRPML1 agonist, TRPML1 blocker, PINK1 modulator, Six1-Eya2 inh, D2 ag, D2 PAM
31: COc1ccccc1CC(=O)Nc1ccc([N+](=O)[O-])cc1O
→ 2.1, 2, 40µM*, -15, -1.8, -15
32: CCc1cc(C(=O)N(CC)CC(=O)Nc2c(F)cccc2F)sc1C
→ -0.5, -15, 4.2%, 1, -0.5, 2
33: COc1cc(NC(=S)N2CCN(S(C)(=O)=O)CC2)cc(OC)c1
→ 0.2, 4, 0.3%, 3, -0.5, -7
34: COc1cc(NC(=O)c2ccc(C(=O)Nc3cc(OC)c(Cl)cc3OC)cc2)c(OC)cc1Cl
→ -0.2, -21, 0.1%, /, /, /
35: COc1ccc(NC(=S)NCCCN2CCCC2)cc1
→ 0.1, -5, -1.7%, -3, -2.5, -4
36: CC(C)c1ccc(N(CC(=O)NC2CCCC2)C(=O)CCC(=O)Nc2nccs2)cc1
→ 0.0, -2, 3.1%, 5, -2.0, -7

Given with bars between the fields: part of the list above.
no. | canonical_smiles | TRPML1 agonist | TRPML1 blocker | PINK1 modulator | Six1-Eya2 inh | D2 ag | D2 PAM
18 | Cc1ccc(CNC(=O)c2ccc(N3CCC4(CC3)CC(c3ccccc3)=NO4)c(N)c2)cc1 | 1.2 | 27 | 1.7% | 4 | -0.2 | -4
19 | Cc1noc(C(=O)Nc2ccc(F)cc2F)c1Cl | -0.8 | -6 | 0.6% | 11 | 1.6 | 0
20 | Cc1ccccc1Oc1ccc2c(c1)[C@@H]1C[C@H](N(C)C(=O)c3ccc(C#N)cc3)[C@H]([C@H](C)O)C(=O)N1CC2 | 3.3 | -3 | 1.4% | -6 | -0.2 | -3
21 | CC(=O)c1cnc(SCCN2C(=O)c3ccccc3C2=O)nc1C | -0.6 | 4 | -0.8% | 2 | 0.5 | -7
22 | CS(=O)c1nc(-c2ccc(Br)cc2)cc(-c2ccccc2)c1C#N (stereo unspecified) | 2.3 | 35 | -8.4%[38.3 µM] | -11 | 1.9 | 1
23 | COc1cc2c(cc1OC)[C@@H]1Cc3cc4c(cc3[C@H](C2)N1C)OCO4 | 0.1 | -2 | -1.1% | 2 | -1.6 | -4
24 | Cc1nc2nc(SCC(=O)NCCCN3CCOCC3)nn2c(C)c1Cc1ccccc1 | 0.0 | -16 | -0.9% | -2 | -2.2 | -11
25 | COc1ccccc1S(=O)(=O)N(C)C[C@H]1OCc2cnnn2CCCC(=O)N([C@@H](C)CO)C[C@@H]1C | -0.1 | 3 | -0.1% | 2 | -8.6 | 1
26 | Cc1cc(CNC(=O)Cc2c(F)cccc2Cl)nn1C | 0.4 | -18 | -0.5%[38.3 µM] | 0 | -0.1 | -2
27 | COc1cccc(CNC(=O)C2CCC(=O)N(CC3CCCCC3)C2)c1OC (stereo unspecified) | 0.1 | 30 | -0.4% | -6 | -3.1 | -4
28 | Fc1ccc(N2CCN(C3CCC(c4ccccc4)CC3)CC2)cc1 (stereo unspecified) | -0.3 | 23 | 12% | -21 | -3.7 | 0
29 | O=C(Nc1cccc(F)c1)c1cccnc1N1CCOCC1 | -0.5 | 0 | 11%[38.3 µM] | -2 | -1.9 | -7
30 | O=C1C=C(N(CCO)Cc2ccccc2)c2ccccc2C1=O | -1.4 | 18 | -0.9% | 64 | ? | 13
31 | COc1ccccc1CC(=O)Nc1ccc([N+](=O)[O-])cc1O | 2.1 | 2 | 40µM* | -15 | -1.8 | -15
32 | CCc1cc(C(=O)N(CC)CC(=O)Nc2c(F)cccc2F)sc1C | -0.5 | -15 | 4.2% | 1 | -0.5 | 2
33 | COc1cc(NC(=S)N2CCN(S(C)(=O)=O)CC2)cc(OC)c1 | 0.2 | 4 | 0.3% | 3 | -0.5 | -7

Screens: PubChem BioAssay, National Center for Advancing Translational Sciences (NCATS)
